High-throughput results as filed in PubChem BioAssay.
VDR inhibitor: Inhibitors of the vitamin D receptor (VDR): qHTS; AID 504847, 2011; hit rate 0.93% among 400,000; Vitamin D3 receptor (Homo sapiens), P11473; VDR-SRC2-3 peptide fluorescence polarization, 2 h; Potency, µM, without a hit: max response, negative = inhibition, hits mostly inhibitors; active = well fitted inhibition curve with a large enough effect; inconclusive = small, poorly fitted or top-dose-only effect, or another doubt; inactive = no such curve, though single readings can be large or run the other way; note: series mostly up to about 120 µM
Target sequence (P11473 whole entry, looked up): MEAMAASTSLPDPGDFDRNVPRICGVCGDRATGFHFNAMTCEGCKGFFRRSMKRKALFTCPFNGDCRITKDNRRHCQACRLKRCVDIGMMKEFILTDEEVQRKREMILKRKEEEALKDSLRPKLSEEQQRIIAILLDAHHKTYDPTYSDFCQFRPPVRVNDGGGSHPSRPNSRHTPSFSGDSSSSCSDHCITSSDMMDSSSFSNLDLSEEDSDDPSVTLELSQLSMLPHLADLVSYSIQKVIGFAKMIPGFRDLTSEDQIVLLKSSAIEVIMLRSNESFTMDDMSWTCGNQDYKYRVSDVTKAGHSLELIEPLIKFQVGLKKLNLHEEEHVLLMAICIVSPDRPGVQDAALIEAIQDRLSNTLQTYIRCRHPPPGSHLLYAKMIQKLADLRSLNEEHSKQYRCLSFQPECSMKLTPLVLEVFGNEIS
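Reagent solutions, kept cold and dark, are dispensed first; compounds are then pinned in at 23 nl, plates briefly spun, and incubated 2 h at ambient temperature. Inhibition of VDR–SRC2-3 peptide binding is read by fluorescence polarization.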
Numbers without * were called inactive; ? = inconclusive; & = joins results of further samples; [ ] = dose if it differs, or a comment. % is set by controls: 0 for no effect and ±100 for the full control effect; potency is the fitted concentration of half-maximal effect.

SMILES	VDR inhibitor
C[C@@H](OC(=O)c1[nH]cnc1C(=O)N1CCc2ccccc2C1)c1ccccc1	3.1%
Oc1cccc(C(Nc2ccccn2)c2ccc3cccnc3c2O)c1Cl (stereo not drawn)	-23.6%
COc1ccc(NS(=O)(=O)c2cc(NC(=O)c3cnc(C)cn3)ccc2N2CCCC2)cc1	?
COCCNc1ccc(S(=O)(=O)N2CCCC2)cn1	-3.1%
C#CCOCCOCCOCCNc1nc(N2CCN(C(=O)[C@H]([C@@H](C)CC)n3cc(CCCCN)nn3)CC2)nc(N2CCN(C(=O)[C@H](CCCCN)n3cc(CCCC)nn3)CC2)n1	-8.0%
Cc1ccc(C(=O)CCS(=O)(=O)c2ccc(F)cc2)cc1	25.1µM*
CCOC(=O)N1C=CC=C[C@@H]2[C@@H](N3C(=O)c4ccccc4C3=O)C(=O)N21	-6.9%
Cc1ccc(C)c(C(=O)COC(=O)CN2C(=O)C3C4C=CC(C4)C3C2=O)c1 (stereo not drawn)	3.4%
O=C(NC1CCCC1)c1cccc(S(=O)(=O)N2CCCCC2)c1	7.1%
Cc1ccc(S(=O)(=O)NC2c3cccc4cccc(c34)C2Sc2ncccn2)cc1 (stereo not drawn)	3.6%
Nn1c(SCc2ccccn2)nncc1=O	0.6%
CN(C)CC(O)Cn1c2ccc(Br)cc2c2cc(Br)ccc21 (stereo not drawn)	?
Cc1[nH]c(SCC(=O)c2c(N)n(C)c(=O)n(C)c2=O)nc1Cc1ccccc1	-18.8%
NC(=O)C1CCN(C(=O)Cc2ccc([N+](=O)[O-])cc2)CC1	8.2%
O=C(c1cn2ccccc2n1)N1CCCC(Nc2ccc(F)c(F)c2)C1 (stereo not drawn)	-13.7%
O=C(CCc1nc(-c2ccccc2Cl)no1)NCc1ccco1	6.1%
Cc1ccc(-c2nc(C(=O)NC3CCCCCC3)no2)cc1	79.4µM*
CC1=C2C(O)C(=O)OC3CC4C(C)(C)C(=O)C=C[C@]4(C)C(CC1)[C@@]23C (stereo partly drawn)	0.2%
COC1CCCN(C(=O)c2cccc(OC3CCN(S(C)(=O)=O)CC3)c2)C1 (stereo not drawn)	1.2%
Cc1cc(C(=O)N/N=C/c2cccc3ccccc23)c(C)o1	7.7%
N#Cc1c(-c2ccc(Cl)cc2)ccnc1N1CCOCC1	-12.1%
Cc1cc(C)c(NC(=S)N(CCN2CCCCC2)Cc2ccco2)c(C)c1	-11.3%
Cc1cc(NC(=O)n2ncc3c(C)cccc32)ccc1Br	9.3%
Cc1cc(C)c2nc(-c3ccccn3)cc(C(=O)N3CCCC3)c2c1	?
CCOc1ccccc1NC(=O)NC(CC)c1c(-n2cccc2)sc2c1CCN(C)C2 (stereo not drawn)	6.0%
C=CCNC(=O)c1snnc1-c1ccccc1	-3.6%
c1ccc(-c2cnc(CSc3nnc4ccccn34)o2)cc1	-7.0%
CC1(C)N=C(SCC(=O)Nc2ccc(Cl)cc2Cl)C(c2ccccc2)=N1	-4.2%
CS(=O)(=O)Nc1ccccc1C(=O)OCc1cc(=O)n2nc(C3CCCCC3)sc2n1	2.5%
Cc1c(C(=O)Nc2ccc(Cl)cn2)oc2ccccc12	-0.9%
CCn1cc(CNC(=O)CCc2nnc(CCC3CCCCC3)o2)cn1	-27.2%
Cc1nn(-c2ccc(N3CCOCC3)nn2)c(C)c1CCC(=O)NCc1ccccc1	-12.4%&3.8%
COc1ccc(Cl)cc1C(=O)NC1=NCCS1	-2.9%
CN(C)C(=S)c1ccc(N(C)C)cc1	?
CC(C)OCCCNC(=O)CCCn1c(=O)[nH]c2ccsc2c1=O	-8.7%
Cc1ccc(C)c(N(C(=O)c2csnn2)C(C(=O)NC2CCCCC2)c2cccnc2)c1 (stereo not drawn)	-5.0%
Cc1cc(Cl)c2oc(C(=O)NC3CCC(O)CC3)c(C)c2c1 (stereo not drawn)	-14.3%
CCN1CCN(C(=S)NCC2CCCO2)CC1 (stereo not drawn)	-7.0%
COc1ccc(CNC(=O)C2CCC(CNc3c(N4CCC(C)CC4)c(=O)c3=O)CC2)cc1 (stereo not drawn)	2.3%
O=C(COc1ccccc1)NCCn1ccc2ccccc21	6.6%
Cc1ccc(C(=O)Nc2cccc(N3C(=O)C4CCC(C)CC4C3=O)c2)cc1 (stereo not drawn)	-12.0%
O=C(N/N=C\c1ccc(S(=O)(=O)O)o1)c1ccc2c(c1)OCO2	-6.8%
CCN(CC)C(=O)CSC1=C(C#N)C(c2cccs2)C=C(C)N1 (stereo not drawn)	3.6%
O=C(Nc1cccc(F)c1)c1cc(S(=O)(=O)N2CCOCC2)ccc1N1CCCC1	-11.2%
COc1ccc(CCNC(=O)C2CCN(Cc3nc(-c4ccccc4F)oc3C)CC2)cc1OC	-6.6%
COc1ccc(C2C(Oc3ccccc3)C(=O)N2c2cc(C)ccc2C)cc1OC (stereo not drawn)	-1.7%
O=C(NCc1cccs1)C1CCN(S(=O)(=O)N2CCCC2)CC1	4.8%
CSc1cccc(NC(=S)N(CCCN2CCCC(C)C2)Cc2cccs2)c1 (stereo not drawn)	?
Cc1cc(Cl)ccc1OCCCC(=O)N1CCOCC1	-7.6%
CCN1CCN(CC(O)COC(c2ccccc2)c2ccccc2C)CC1 (stereo not drawn)	3.4%

Four structures out of the list, arranged by molar mass, lowest first.
SMILES	VDR inhibitor
O=C(N/N=C\c1ccc(S(=O)(=O)O)o1)c1ccc2c(c1)OCO2	-6.8%
CCN(CC)C(=O)CSC1=C(C#N)C(c2cccs2)C=C(C)N1 (stereo not drawn)	3.6%
O=C(NCc1cccs1)C1CCN(S(=O)(=O)N2CCCC2)CC1	4.8%
CSc1cccc(NC(=S)N(CCCN2CCCC(C)C2)Cc2cccs2)c1 (stereo not drawn)	?

Entries listed so far marked active in VDR inhibitor:
SMILES	VDR inhibitor
Cc1ccc(C(=O)CCS(=O)(=O)c2ccc(F)cc2)cc1	25.1µM*
Cc1ccc(-c2nc(C(=O)NC3CCCCCC3)no2)cc1	79.4µM*

(continued)
SMILES	VDR inhibitor
CC(=O)Nc1ccc(/C=N/NS(=O)(=O)c2cc(C)ccc2C)cc1	23.7%
Cc1ccc(S(=O)(=O)CCC(=O)OCC(=O)c2cc(C)ccc2C)cc1	-15.6%
COc1ccc(N(CC(=O)NCc2cccnc2)S(=O)(=O)c2ccccc2[N+](=O)[O-])c(OC)c1	1.8%
CNNC(=S)Nc1cccc(SC)c1	2.5%
COc1ccccc1CCC(=O)Nc1cccc(S(=O)(=O)N2CCCC2)c1	-19.5%
COc1cccc(C2C(C(C)=O)=C(O)C(=O)N2Cc2ccco2)c1 (stereo not drawn)	3.4%
CN(C(=O)COC(=O)CCCc1c[nH]c2ccccc12)c1c(N)n(Cc2ccccc2)c(=O)[nH]c1=O	10.3%
CC(=O)c1ccc(N(CC(=O)Nc2cc(C)on2)S(=O)(=O)c2ccc(C)cc2)cc1	?
CCN1CCN(C(=O)Cn2ncc3c4ccccc4n(Cc4c(C)cc(C)cc4C)c3c2=O)CC1	6.6%
COc1ccc(OC)c(NC(=O)CSc2nc3[nH]c(=O)cc(O)c3s2)c1	-3.4%
O=C(Nc1nnc(S(=O)(=O)N2CCCCC2)s1)c1cccc(Br)c1	-17.3%
O=C1C=CC(=O)c2c(O)c(Cl)c(Cl)c(O)c21	4.47µM*
Cc1ccc(CN2C(=O)C(O)(c3c(C)[nH]c4ccccc34)c3ccccc32)cc1 (stereo not drawn)	?
S=C1NCCc2ccc(Cl)cc2C1c1ccccc1 (stereo not drawn)	-8.1%
Cc1coc2c(C)c3oc(=O)c(CCC(=O)NCCCN4CCCC4=O)c(C)c3cc12	-4.5%
CCc1ccc(N=C2NC(=O)CC(C(=O)Nc3ccc(OC)cc3)S2)cc1 (stereo not drawn)	?
CC(Nc1nc(-c2ccccc2O)nc2ccccc12)c1ccccc1 (stereo not drawn)	7.0%
COc1ccc(-c2nc(C(N)=O)c3c(n2)n(-c2ccccc2OC)c(=O)n3C)c(OC)c1	15.1%
c1ccc2c(c1)CCCc1cc(NCCN3CCOCC3)nnc1-2	-12.6%&-11.9%
Cc1ccc(NC(=O)COc2ccc(/C=C3/SC(=Nc4ccccc4)N(Cc4cccnc4)C3=O)cc2)cc1	-2.3%
CCC(C)Sc1ccc([C@@H]2[C@@H]3C(=O)N(CC)C(=O)[C@@H]3[C@]3(C(=O)OC)CCCCN23)cc1 (stereo partly drawn)	3.8%
CCOC(=O)c1c(C)[nH]c(C)c1C(=O)COC(=O)COc1ccc(Cl)c(C)c1	-7.6%
CCS(=O)(=O)N1CCN(C(=O)CCC2CCCC2)CC1	8.5%
CCO[C@H]1OC(C(=O)NC2CC2)=C[C@@H](c2ccc(C(F)(F)F)cc2)[C@@H]1CCCO	4.8%
COc1ccc(S(=O)(=O)NCC(=O)Nc2ccc3c(c2)OCCO3)cc1OC	10.0%
CC(C)N1C(=O)CC2(CC[N+](C)(CCOC(=O)C(c3ccccc3)c3ccccc3)CC2)C1=O (stereo not drawn)	-11.6%
CCN1C(=O)CCC(C(=O)O)C1c1ccc(OC)cc1 (stereo not drawn)	32.3%[activator]
CCC(Cn1nnc2ccccc2c1=O)NC(=O)Nc1cc(C)cc(C)c1 (stereo not drawn)	-14.5%
CCn1c(SC(C)C)nnc1-c1c[nH]c2ccccc12	-6.6%
O=C(Nc1cccnc1)C(Cc1ccccc1)n1cccc1 (stereo not drawn)	-19.4%
COc1ccc(F)cc1S(=O)(=O)Nc1cccc(-c2ccc(N3CCC(C)CC3)nn2)c1	5.4%
O=C(Nc1cccc2cccnc12)c1c(Cl)cc(Cl)cc1Cl	2.9%
O=c1c2ccccc2c(=O)n(-c2ccccc2)n1-c1ccccc1	-4.6%
COc1ccccc1/C=C\C(=O)NCC(=O)N/N=C/c1cccc(OC)c1O	-5.4%
Cc1ccccc1CN(C)CC(=O)Nc1cccc(S(=O)(=O)N(C)c2ccccc2)c1	-26.3%
O=C(Nc1ccccc1-c1nc2ccccc2s1)c1ccc(Br)o1	3.4%
O=C(Cc1cnc2ncnn2c1)N1CCc2c([nH]c3ccccc23)C1c1ccccc1F (stereo not drawn)	-5.9%
Cn1nc(C(=O)Nc2ccccc2N2CCCC2)c2ccccc2c1=O	13.1%
O=S(=O)(NCCS(=O)(=O)N1CCN(c2ccccc2)CC1)c1ccc(Cl)cc1	13.8%
O=C(CNC(=O)c1ccc(Br)cc1)OCC(=O)c1ccccc1	-7.1%
COC(Cc1ccccc1N1CCCC1=O)OC	3.5%
Cc1ccccc1Nc1nc(N)nc(COC(=O)c2ccccc2)n1	4.5%
Nc1cc(=O)[nH]c(SCC(=O)Nc2ccc(F)c(Cl)c2)n1	-2.8%
Cc1cccc2cc(COC(=O)c3cccc([N+](=O)[O-])c3)c(=O)[nH]c12	6.0%
c1ccc2c(C[n+]3csc4ccccc43)cccc2c1	44.7µM*
COc1ccc(S(=O)(=O)N(C)C[C@@H]2Oc3c(NS(C)(=O)=O)cccc3C(=O)N([C@@H](C)CO)C[C@H]2C)cc1	13.1%
CCOC(=O)c1nn(-c2ccccc2)c(=O)cc1SC(C)C	-11.4%
CCOc1cc(C(=O)N2CCC(CC3CC(c4ccc(Cl)cc4)=NO3)(C(=O)NCC3CCCCC3)CC2)cc(OCC)c1OCC (stereo not drawn)	-22.3%
C/C(=N\NS(=O)(=O)c1ccc(C)cc1)c1cc2ccccc2oc1=O	0.3%
CCCSC1=C(C#N)C(c2ccc(O)c(OC)c2)CC(=O)N1 (stereo not drawn)	6.2%

Given as labelled records: 3 of the compounds above
Cc1ccccc1CN(C)CC(=O)Nc1cccc(S(=O)(=O)N(C)c2ccccc2)c1
  VDR inhibitor: -26.3%

Cc1cccc2cc(COC(=O)c3cccc([N+](=O)[O-])c3)c(=O)[nH]c12
  VDR inhibitor: 6.0%

Cc1cc(Cl)ccc1OCCCC(=O)N1CCOCC1
  VDR inhibitor: -7.6%

(more compounds)
SMILES	VDR inhibitor
Cc1ccc(-c2nnc(Nc3ccc(S(N)(=O)=O)cc3)c3ccccc23)cc1S(=O)(=O)N1CCCCC1	3.8%
CC(=O)C1=C(C)NC(=O)CC1c1ccc(F)cc1 (stereo not drawn)	-2.8%
COc1cc(CCC(=O)NCc2ccc(F)cc2)cc(OC)c1OC	-8.1%
O=C(COC(=O)Cc1c(F)cccc1Cl)NC(=O)c1ccccc1	2.2%
C/C(=N\NC(=O)CC1N=C(Cc2ccccc2)NNC1=O)c1ccc(C)cc1 (stereo not drawn)	3.5%
COCCN1C(=O)c2[nH]nc(-c3c(C)cc(C)cc3O)c2C1c1cccc(O)c1 (stereo not drawn)	-8.7%
Cc1ccccc1Nc1c(-c2ccccc2)nc2ncccn12	-5.9%
CS(=O)(=O)Nc1ccccc1C(=O)OCC(=O)NCc1cccs1	6.6%
CC1CN(S(=O)(=O)c2ccc(Cl)c(S(=O)(=O)N3CC(C)OC(C)C3)c2)CC(C)O1 (stereo not drawn)	-2.3%
Cn1ccnc1SCc1cn2ccccc2n1	-11.9%
COc1ccc(NCC(=O)N/N=C/C=C/c2ccccc2[N+](=O)[O-])cc1	3.9%
COc1ccc(OCCSc2nc(N)cc(N)n2)cc1	-6.3%
Cc1cc(C)cc(NC(=S)N2CC(C)OC(C)C2)c1 (stereo not drawn)	6.1%
COc1ccc(-c2ccc(-c3nc4ccc(C)cn4c3NC3CCCCC3)cc2OC)cc1	-4.8%
COc1ccc(NC(=O)C2CCCN(S(C)(=O)=O)C2)cc1OC (stereo not drawn)	-6.0%
CCN(CC)c1ccc(/C=N/NC(=O)c2ccc3nc[nH]c3c2)c(O)c1	-18.2%
CCOc1ccc(CCNC(c2cccc(Cl)c2)c2nnc(-c3ccccc3)o2)cc1OCC (stereo not drawn)	9.3%
CCn1c(SCC(=O)NC(C)c2ccccc2)nc2ccccc21 (stereo not drawn)	-10.3%

Not all compounds are listed; count on the stated rates, not on these rows.
